TRPML1 blocker – human mucolipin-1 channel inhibition | activity change, negative = inhibition, % (test concentration not listed) | AID 624415 | Q9GZU1 | TRPML1-inducible cells, Ca2+ dye fluorescence, FDSS; active compounds read low; inhibition of EC80 agonist-evoked calcium signal | 390,000 tested, 0.02% active; in the data active means activity change below about -50%; inconclusive means about -30% to -50%; inactive means above about -30%;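 note: stimulus is agonist 54-4 at its EC80 concentration; % is set by controls: 0 for no effect and ±100 for the full control effect; compound concentration not given in the record; the text of the record puts the active cut at -80%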
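TRPML1-DL cells, Tet-induced overnight (~16 h, 37 °C) at 1,500 cells/well, were loaded with Ca8 no-wash dye plus quencher for 45-90 min at room temperature. Compounds were pinned during FDSS kinetic reading; agonist 54-4 at EC80 (4 uM final) then added.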
CtBP-E1A blk – inhibitors of CtBP/E1A interaction. AlphaScreen GST-E1A/His-CtBP binding, 1536-well; active compounds read low; control for the full effect not named in the record. 340,000 tested, 0.49% active. AID 651724. activity change, % (no concentration beside the values); in the data active means activity change below about -65%; inconclusive means about -30% to -65%; inactive means above about -30%; note: % is set by controls: 0 for no effect and ±100 for the full control effect
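In 5 uL wells, 23 nL compound meets equimolar GST-E1A and His-CtBP (5X stock 125 nM each) for 2 h, 37 °C. Beads (5X, 50 ug/mL) then 1 h, 37 °C, dark.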
D2 ag – human D2 receptor agonism in beta-arrestin assay; 360,000 tested, 0.084% active; DiscoveRx PathHunter D2 beta-arrestin, luminescence, 90 min; 100% = 57 uM dopamine signal; activation, % (concentration not given with the values); P14416; AID 624465; in the data active = activation above about 40%; inconclusive = about 15% to 40%; inactive = below about 15%; note: compound concentration not given in the record; the text of the record calls up to 30% inactive
Target sequence (P14416 whole entry, looked up): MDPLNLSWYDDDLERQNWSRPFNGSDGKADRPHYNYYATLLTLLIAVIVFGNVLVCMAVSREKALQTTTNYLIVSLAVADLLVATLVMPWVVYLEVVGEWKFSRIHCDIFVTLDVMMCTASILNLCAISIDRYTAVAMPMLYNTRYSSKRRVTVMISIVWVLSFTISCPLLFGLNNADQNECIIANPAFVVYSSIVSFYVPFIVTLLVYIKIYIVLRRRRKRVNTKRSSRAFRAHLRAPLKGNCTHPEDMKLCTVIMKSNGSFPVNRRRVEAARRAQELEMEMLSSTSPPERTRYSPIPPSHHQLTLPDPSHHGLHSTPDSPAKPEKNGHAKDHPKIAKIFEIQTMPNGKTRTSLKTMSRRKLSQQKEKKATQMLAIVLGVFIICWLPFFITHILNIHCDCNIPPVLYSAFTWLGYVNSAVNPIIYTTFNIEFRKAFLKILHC
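Agonist mode: compounds alone added to overnight-plated D2 PathHunter cells for 90 min at 37 C, with 57 uM final dopamine (EC100) defining full response. Beta-arrestin recruitment detected by chemiluminescent reagent, read after 1 h at ambient temperature.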
TRPML1 agonist – human mucolipin-1 channel agonism. 410,000 tested, 0.12% active. activation, % (concentration not given with the values). TRPML1-expressing cells, Ca2+ dye fluorescence, FDSS; host cell line not named in the record; reference of the full effect not given here. AID 624414. Q9GZU1; in the data active = activation above about 50%; inconclusive = about 30% to 50%; inactive = below about 30%; note: 0% is about no effect; the text of the record puts the active cut at 80%
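Tetracycline-induced TRPML1-DL cells are seeded and incubated overnight before loading with a no-wash Ca2+ dye and quencher. Agonist activity is taken from the 110 s fluorescence read following compound pin-transfer on an FDSS, before EC80 54-4 challenge.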
PINK1 expr mod – modulators of PINK1 expression. AID 624263. 410,000 tested, 0.2% active. Potency, µM (doses to about 76.6 µM), without a hit: at the highest dose activation (PINK1 increase), hits mostly activators. PINK1 immunofluorescence, high-content cytometry, 24 h; active = well fitted activation curve with a large enough effect; inconclusive = small, poorly fitted or top-dose-only effect; inactive = flat fitted curve, though single readings scatter; cell line not stated here;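 note: potency is the fitted concentration of half-maximal effect; % of control where 0% means no effect; nearly all actives have a fitted effect of over 65% in size; a mitochondrial uncoupler was the plate control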
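Cells are seeded, rested 12 hours, then given compound at five concentrations or DMSO for 24 hours. After fixation, blocking and antibody staining, PINK1 amount and mitochondrial localization are scored; CCCP serves as control.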
Six1-Eya2 blk – Six1/Eya2 interaction inhibition. 360,000 tested, 0.56% active. AlphaScreen GST-Six1/His-Eya2 binding, biochemical; active compounds read low; control for the full effect not named in the record. Q15475+O00167. activity change, % (no concentration beside the values); in the data active = activity change below about -65%; inconclusive = about -30% to -65%; inactive = above about -30%; note: % is set by controls: 0 for no effect and ±100 for the full control effect
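Six1/Eya2 binding was read as AlphaScreen signal after compounds were pinned into GST-Six1 plus His-tagged Eya2 (5X stock 250/500 nM) in pH 8.0 Tris/NaCl/TCEP buffer, beads added, then incubated 1 h, 37 C, dark.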
Starred values were filed as active, the others as inactive; ? = inconclusive; nt = not tested or not shown; & = joins results of further samples; [ ] = remark or other dose.

SMILES,TRPML1 blocker,CtBP-E1A blk,D2 ag,TRPML1 agonist,PINK1 expr mod,Six1-Eya2 blk
CCOc1ccc(C(NC(=O)CC)c2c(O)ccc3ccccc23)cc1 (configuration not stated),-17,nt,-10,-1.0,6.4%,12
O=C(COc1ccc([N+](=O)[O-])cc1)N(Cc1ccccc1)Cc1ccccc1,2,-10,-1.4,0.4,-0.4%,0
CCOC(=O)c1c(C)[nH]c(C)c1C(=O)CSc1nc2ccccc2c(=O)n1-c1ccc(C)cc1,-22,9,0.7,0.7,3.8%,2
O=C(NCCc1ccc(F)cc1)C(=O)Nc1cc2c3c(c1)CC(=O)N3CCC2,-2,0,-8.7,1.0,2.0%,19
O=C(/C(=C(\[O-])c1ccccc1)[n+]1ccc2ccccc2c1)c1ccc(Cl)cc1,4,-3,-0.4,-0.2,5.9%,-17
C/C=C/c1ccc(OCCCCNCc2ccco2)c(OC)c1,-19,-15,-6.2,-0.2,2.3%,-18
CC(C)NC(=O)c1onc(CSc2ccc(F)c(F)c2)c1C(=O)O,2,7,-0.5,-0.6,2.3%,-1
Cc1cccc(C)c1NC(=S)N(Cc1cccnc1)Cc1ccccc1Cl,-12,-4,-0.2,1.0,0.7%,0
CCOC(=O)c1cc[n+](CC(=O)c2ccc(F)cc2)cc1,1,8,-2.3,0.4,3.6%,0
CN(CC(=O)Nc1ccc(F)cc1)C(=O)C1CCN(C(=O)Nc2ccccc2)CC1,-2,nt,-1.9,-0.4,0.8%,0
O=c1oc2ccccc2cc1-c1cn2cc(Cc3cc(Cl)ccc3Cl)sc2n1,-2,nt,nt,-0.4,1.7%,nt
O=C(c1[nH]c(C(F)(F)F)nc1-c1ccccc1)N1CCN(c2ccncc2)CC1,nt,2,-4.8,-0.5,-0.4%,-6
COC(=O)C1(C)NC(c2ccc(Cl)cc2)C2C(=O)N(c3ccccc3)C(=O)C21 (configuration not stated),4,nt,-2.7,-0.5,0.7%,13
Cc1ccc(/C=N/Nc2nnc(Cl)c3ccccc23)cc1,28,-16,-7.6,1.2,0.5%,-8
C=CCOC(=O)C1=C(C)Nc2[nH]c(=O)[nH]c(=O)c2C1c1ccccc1 (configuration not stated),33,nt,-2.2,1.1,-1.1%,-3
CCOC(=O)[C@H]1[C@H]2COc3ccc(OC)cc3[C@@H]2N2C(=O)c3cc(OC)c(OC)cc3NC(=O)[C@@]12C,-24,0,-2.7,0.6,-0.8%,-17
Cc1cccn2c(=O)c3cc(C(=O)N4CCN(C(=O)c5ccco5)CC4)n(C)c3nc12,0,1,-0.2,0.5,2.3%,-17
CC(C)NC(=O)Nc1cccc2c1O[C@H](CN(C)S(=O)(=O)c1ccc(F)cc1)[C@@H](C)CN([C@H](C)CO)C2=O,14,2,-2.5,-0.3,1.6%,0
CN(CCOc1ccccc1)C(=O)c1ccc(F)c(S(=O)(=O)N2CCOCC2)c1,29,7,2.4,0.4,-0.4%,0
CN1C(=O)C2(c3ccccc31)N(c1ccc(Br)cc1)C(=O)CS2(=O)=O (configuration not stated),-13,nt,nt,0.0,-3.3%,nt
CC(C)(C)OC(=O)N1Cc2ccccc2C[C@H]1C(=O)NC1CCCC1,23,-10,-4.4,-0.9,-0.6%,-19
O=S(=O)(O)CCN1CCOCC1,8,-1,-2.9,0.5,-0.1%,1
COC(=O)Cn1c(CN2CCN(c3ccccc3F)CC2)nc2c1c(=O)n(C)c(=O)n2C,-4,3,1.5,-0.5,0.0%,-2
CCOc1ccccc1Oc1coc2cc(O)ccc2c1=O,18,3,-2.8,-1.0,-0.2%,-1
O=C1C=C(c2ccc(C(=O)O)c(Cl)c2)C[C@@H](c2ccc3c(c2)OCO3)C1,2,2,-5.1,-0.8,-0.3%,-3
CN(CC(=O)Nc1ccc(F)cc1)C(=O)COC(=O)Cc1c(F)cccc1Cl,8,0,-3.0,0.6,2.3%,-7
CN(N=Nc1ccc([N+](=O)[O-])cc1)c1ccccc1,-7,nt,-0.1,-0.1,4.9%,-12
CCOc1ccc(S(=O)(=O)/N=C(/Nc2ccc(C(C)=O)cc2)c2ccccc2)cc1,-4,?,1.5,0.4,-1.6%,?
COc1ccc(CNC(=O)CSc2nnc(-c3ccc(NC(C)=O)cc3)n2C)cc1,6,3,0.0,0.6,2.8%[38.3 µM],-1
COc1cccc(C2=CC(=O)C[C@H](c3ccc(OC)c(OC)c3)C2)c1,-3,-2,2.1,3.3,0.4%,-9

Two entries from above in another layout:
Second line of a record: TRPML1 blocker, CtBP-E1A blk, D2 ag, TRPML1 agonist, PINK1 expr mod, Six1-Eya2 blk
CC(C)NC(=O)Nc1cccc2c1O[C@H](CN(C)S(=O)(=O)c1ccc(F)cc1)[C@@H](C)CN([C@H](C)CO)C2=O
    14, 2, -2.5, -0.3, 1.6%, 0
Cc1cccn2c(=O)c3cc(C(=O)N4CCN(C(=O)c5ccco5)CC4)n(C)c3nc12
    0, 1, -0.2, 0.5, 2.3%, -17

Some of these compounds in order of length of the SMILES, smallest number first:
SMILES,TRPML1 blocker,CtBP-E1A blk,D2 ag,TRPML1 agonist,PINK1 expr mod,Six1-Eya2 blk
O=S(=O)(O)CCN1CCOCC1,8,-1,-2.9,0.5,-0.1%,1
C/C=C/c1ccc(OCCCCNCc2ccco2)c(OC)c1,-19,-15,-6.2,-0.2,2.3%,-18
Cc1ccc(/C=N/Nc2nnc(Cl)c3ccccc23)cc1,28,-16,-7.6,1.2,0.5%,-8
CCOC(=O)c1cc[n+](CC(=O)c2ccc(F)cc2)cc1,1,8,-2.3,0.4,3.6%,0
CCOc1ccc(C(NC(=O)CC)c2c(O)ccc3ccccc23)cc1 (configuration not stated),-17,nt,-10,-1.0,6.4%,12
CC(C)(C)OC(=O)N1Cc2ccccc2C[C@H]1C(=O)NC1CCCC1,23,-10,-4.4,-0.9,-0.6%,-19
COc1cccc(C2=CC(=O)C[C@H](c3ccc(OC)c(OC)c3)C2)c1,-3,-2,2.1,3.3,0.4%,-9
CN(CC(=O)Nc1ccc(F)cc1)C(=O)COC(=O)Cc1c(F)cccc1Cl,8,0,-3.0,0.6,2.3%,-7
COc1ccc(CNC(=O)CSc2nnc(-c3ccc(NC(C)=O)cc3)n2C)cc1,6,3,0.0,0.6,2.8%[38.3 µM],-1
CN(CCOc1ccccc1)C(=O)c1ccc(F)c(S(=O)(=O)N2CCOCC2)c1,29,7,2.4,0.4,-0.4%,0
O=C(c1[nH]c(C(F)(F)F)nc1-c1ccccc1)N1CCN(c2ccncc2)CC1,nt,2,-4.8,-0.5,-0.4%,-6
CCOc1ccc(S(=O)(=O)/N=C(/Nc2ccc(C(C)=O)cc2)c2ccccc2)cc1,-4,?,1.5,0.4,-1.6%,?
COC(=O)Cn1c(CN2CCN(c3ccccc3F)CC2)nc2c1c(=O)n(C)c(=O)n2C,-4,3,1.5,-0.5,0.0%,-2
Cc1cccn2c(=O)c3cc(C(=O)N4CCN(C(=O)c5ccco5)CC4)n(C)c3nc12,0,1,-0.2,0.5,2.3%,-17
CCOC(=O)c1c(C)[nH]c(C)c1C(=O)CSc1nc2ccccc2c(=O)n1-c1ccc(C)cc1,-22,9,0.7,0.7,3.8%,2
CCOC(=O)[C@H]1[C@H]2COc3ccc(OC)cc3[C@@H]2N2C(=O)c3cc(OC)c(OC)cc3NC(=O)[C@@]12C,-24,0,-2.7,0.6,-0.8%,-17
CC(C)NC(=O)Nc1cccc2c1O[C@H](CN(C)S(=O)(=O)c1ccc(F)cc1)[C@@H](C)CN([C@H](C)CO)C2=O,14,2,-2.5,-0.3,1.6%,0

Carrying on:
SMILES,TRPML1 blocker,CtBP-E1A blk,D2 ag,TRPML1 agonist,PINK1 expr mod,Six1-Eya2 blk
O=C(C=Cc1ccco1)c1ccco1,-1,-4,-1.0,-0.4,0.4%,-6
CCCCC1CC(CSc2ncn[nH]2)OC1=O (configuration not stated),-6,5,-2.0,-0.6,0.6%,3
O=C(Cc1ccc(Br)cc1)N1CCN(c2ccccn2)CC1,0,13,-1.4,0.4,0.8%,3
NC1(C#Cc2ccc3oc(=O)c(-n4cc(-c5ccsc5)nn4)cc3c2)CCCCC1,0,-5,-0.1,0.0,-0.1%,1
CCOC(=O)C1CCN(C(=O)COC(=O)C2CCN(S(=O)(=O)c3ccc4c(c3)OCCO4)CC2)CC1,-5,-26,1.5,-0.1,-1.6%,4
CN(C(=O)c1nn(C)c2c1CS(=O)(=O)c1ccccc1-2)c1cccc(Cl)c1,-14&7,3,-1.3,0.2&-0.6,0.9%&3.4%,0

Screens: PubChem, National Center for Advancing Translational Sciences (NCATS)
